Mtb bLac sens = beta-lactam sensitization of Mtb H37Rv. 0.27% of 330,000 active. inhibition, % at 25 µM. AID 434955. M. tuberculosis H37Rv growth with meropenem, percent inhibition; hits of this screen are not shown here;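 active = about 74% or more and at least 40 points above the plate without the antibiotic, then above 30% in a dose series; inconclusive = first-round hits that could not be retested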;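 note: growth measured after seven days incubation then overnight dye step; 0% = bacteria only wells and 100% = bacteria with antibiotic; twin plates without the antibiotic show which effects depend on it; some results filed as inactive read as strong as hits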
Mtb growth = M. tuberculosis H37Rv growth inhibitors, H37Rv strain (AID 1626) | 0.95% of 220,000 active | one-dose inhibition, % at 10 µM; IC50 in µM for titrated hits | M. tuberculosis H37Rv growth inhibition; higher % means a stronger effect;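 active = confirmed in a dose series; inconclusive = inhibition above 80% but not taken into the dose series; inactive = below 80% or under 30% at every dose of the series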;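 note: bacteria incubated seven days before Alamar blue readout; 0% = bacteria only wells and 100% = bacteria with antibiotic wells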
Arbovirus anti = antivirals against arbovirus infection. arbovirus infection cell-based antiviral screen. inhibition, % at 10 µM. 0.37% of 200,000 active;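 active = inhibition from about 30%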;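 note: bluetongue infection of BSR cells; cell survival read as ATP light after 72 h; 0% = infected wells without compound and 100% = uninfected wells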
RecA splice inh = blocks M. tuberculosis RecA intein splicing; AID 2221; 0.75% of 290,000 active; P9WHJ3; cell-free RecA intein splicing, fluorescence; inhibition, %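 (about 9 µM by stock and volumes)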; in the data active = inhibition above about 30%; inconclusive = no clear call, values can overlap the other calls;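 note: 0% = vehicle wells and 100% = reference inhibitor control wells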
Target sequence (P9WHJ3 whole entry, looked up, canonical isoform): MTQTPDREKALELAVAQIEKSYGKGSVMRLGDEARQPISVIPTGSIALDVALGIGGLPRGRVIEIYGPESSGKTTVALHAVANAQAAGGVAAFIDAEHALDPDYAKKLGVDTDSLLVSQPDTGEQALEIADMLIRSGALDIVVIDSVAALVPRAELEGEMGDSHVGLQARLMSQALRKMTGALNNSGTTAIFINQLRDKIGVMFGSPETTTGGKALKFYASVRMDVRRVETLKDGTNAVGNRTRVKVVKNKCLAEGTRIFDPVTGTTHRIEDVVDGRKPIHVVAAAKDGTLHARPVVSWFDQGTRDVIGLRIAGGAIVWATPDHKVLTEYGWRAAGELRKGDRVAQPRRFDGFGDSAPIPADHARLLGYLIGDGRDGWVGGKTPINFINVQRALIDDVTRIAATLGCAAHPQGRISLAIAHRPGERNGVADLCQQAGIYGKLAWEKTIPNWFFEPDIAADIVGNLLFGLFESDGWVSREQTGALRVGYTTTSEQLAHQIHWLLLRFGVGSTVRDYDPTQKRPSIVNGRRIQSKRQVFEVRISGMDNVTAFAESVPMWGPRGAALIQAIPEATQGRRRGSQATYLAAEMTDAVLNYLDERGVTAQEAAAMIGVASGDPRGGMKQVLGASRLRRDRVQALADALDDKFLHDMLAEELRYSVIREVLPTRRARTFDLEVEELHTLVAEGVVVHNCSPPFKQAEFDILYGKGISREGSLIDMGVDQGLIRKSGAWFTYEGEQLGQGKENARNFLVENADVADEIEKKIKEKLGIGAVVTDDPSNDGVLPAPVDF
YopH inh = inhibitors of Yersinia enterocolitica YopH tyrosine phosphatase | fluorescence Ex485/Em525 | inhibition, %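 (about 10 µM by stock and volumes)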 | 0.16% of 140,000 active;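 active = inhibition of 50% or more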;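 note: controls were vehicle for no effect and minimum signal wells for full effect; inactives centre near -20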
Arbovirus anti repeat = also measured in Arbovirus anti; calls as there; inhibition, %; measured here: 10K subset replicate screen; many hits read low in the repeat;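 first of two repeat runs on a subset; 0% = infected and 100% = uninfected wells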
* marks the source's active call; other numbers are inactive results; ? = inconclusive; · = no result given. Not all compounds are listed. The share of hits here may be higher or lower than overall.

SMILES | Mtb bLac sens | Mtb growth | Arbovirus anti | RecA splice inh | YopH inh | others
O=C(Nc1ccc(F)cc1)c1nn(-c2ccccc2)c(=O)cc1Cl | · | 79% | -31 | 31* | ·
COc1cccc(C(=O)c2sc(NC(C)C)nc2N)c1 | 20 | 26% | -19 | 1.4 | -22
Cc1ccc(N(CC(=O)NC(C)C)C(=O)CCC(=O)Nc2nccs2)cc1C | 2 | · | · | -1.8 | ·
COc1ccc(NC2CCCN(C(=O)c3csc(C(C)C)n3)C2)cc1 (centres undefined) | 3 | · | · | -0.9 | ·
COc1ccccc1OCC(=O)Nc1ccncc1 | -12 | · | · | -1.0 | ·
COC(=O)CN1C(=O)N/C(=C/c2ccc(C)o2)C1=O | 2 | -2% | 4 | 4.1 | ·
COc1ccccc1NCC(=O)N/N=C(\C)c1ccc(Br)s1 | 6 | 9% | -2 | -2.9 | -11
CCOc1ccccc1C(=O)Nc1ccc2nc(N3CCN(c4ncccn4)CC3)cc(C)c2c1 | 78 | · | -18 | · | 6 | Arbovirus anti repeat=-10
Cc1ccc(N(C(=O)Cn2nnc(-c3cccs3)n2)C(C(=O)NC2CCCC2)c2ccncc2)cc1 (centres undefined) | 8 | -1% | -1 | 0.0 | -39
Cc1ccccc1CN(c1ccc(C(=O)NCc2ccccn2)cc1)S(C)(=O)=O | -1 | 3% | -4 | -1.1 | ·
CCn1c(SCC(=O)c2ccc(Cl)cc2)nnc1C(C)C | -7 | -9% | 4 | 1.1 | -25
Cc1nn(C)cc1/C=N/NC(=O)Cn1cncn1 | 3 | 2% | · | · | ·
Cc1cc(C)cc(NC(=O)C[n+]2ccccc2)c1 | 5 | · | · | 1.8 | ·
CCOc1cccc(/C=N/N2C(=O)CSC2=S)c1O | 0 | -8% | -10 | -1.3 | ·
O=C(Nc1cc(C(F)(F)F)ccc1N1CCOCC1)c1ccc2ccccc2n1 | 7 | 8% | -1 | -0.3 | -41
CN(C)CCCn1c(SCc2c(Cl)cccc2Cl)nnc1-c1ccncc1 | 1 | · | · | -1.9 | ·
NC(=O)C1CCN(S(=O)(=O)Cc2ccccc2Cl)CC1 | 0 | -4% | -2 | -5.3 | ·
COc1ccc(NC(=O)CC2C(=O)NCCN2C(=O)Nc2ccc(C(F)(F)F)cc2)cc1 (centres undefined) | -11 | · | · | -2.3 | ·
COc1cccc(/C=N/NC(=O)C(C)n2nc(C)c([N+](=O)[O-])c2C)c1O (centres undefined) | 9 | · | -7 | -5.3 | -37
CCOCCCNCC(=O)NC1(C)C2CCC(C2)C1(C)C (centres undefined) | -6 | -10% | 8 | -5.9 | -15
CC(C)CCn1c(SCC(=O)NC2CC2)nc2cc(Cl)ccc2c1=O | -11 | · | · | -0.7 | ·
Cc1cc(C)cc(-n2c(C)cc(/C=N/NC(=O)c3cccc([N+](=O)[O-])c3C)c2C)c1 | 49 | 5% | -17 | -1.8 | -3
Cc1ccc(/C=C/C(=O)Nc2ccc([N+](=O)[O-])cc2)o1 | -1 | 7% | 5 | -3.1 | -33
O=C(CSCc1ccc(Br)cc1)Nc1ccc(S(=O)(=O)N2CCOCC2)cc1 | -12 | -3% | -4 | 1.8 | -19
CCOc1ccccc1NC(=O)c1nnn(CC(=O)Nc2cc(C)cc(C)c2)c1N | 1 | · | · | -1.9 | ·
Cc1nc2ccc3nc(NC(=O)C4COc5ccccc5O4)sc3c2s1 (centres undefined) | -7 | · | 1 | -2.3 | -4 | Arbovirus anti repeat=3
S=C(NCc1ccco1)Nc1ccc(Br)cn1 | 30 | · | · | 1.8 | ·
N#Cc1c(Cl)nc(-c2cccnc2)nc1-c1ccccc1 | -11 | · | · | 0.1 | ·
Cc1ccc(NC(=O)C2CCCN(S(=O)(=O)c3cccnc3)C2)c(C)c1 (centres undefined) | 4 | · | · | 0.2 | ·
O=C(NCCCN1CCOCC1)c1cc2c(s1)CCC2 | -4 | 3% | 5 | -2.1 | -24
O=C(CCn1c(=O)sc2ccccc21)NCc1cccs1 | 0 | 1% | 2 | 1.5 | -3
COC(=O)c1sc(-c2ccc(C(C)(C)C)cc2)cc1NC(=O)COCC(=O)O | 88 | 24% | · | 6.5 | ·
CCCC(C(=O)NCCC(C)C)N(Cc1ccccc1Cl)C(=O)c1snc(C(N)=O)c1N (centres undefined) | 10 | · | · | 0.1 | ·
O=C(Nc1ccccc1)Nc1cccc(NC(=O)Nc2ccccc2)c1F | 2 | · | · | -0.6 | ·
O=C(Nc1ccc(F)cc1F)c1ccccc1-c1ccccc1 | 88 | 6% | 4 | 2.8 | -7
CCN(CC(=O)NCc1ccc(Cl)cc1)C(=O)c1cc(S(=O)(=O)NCc2ccccc2)ccc1C | 4 | · | · | -3.8 | ·
O=[N+]([O-])c1cc(S(=O)(=O)c2ccc(O)c([N+](=O)[O-])c2)ccc1O | 3 | -5% | 1 | 6.2 | -68
O=C(Cc1coc2cc3c(cc12)CCC3)OCc1cc(=O)n2c(n1)sc1ccccc12 | -5 | -2% | 14 | 3.0 | -52
CC(C)CCN1CC(=O)N2[C@@H](Cc3c([nH]c4ccccc34)C2(C)C)C1=O | 1 | · | · | -1.8 | ·
COc1ccc(-c2cc(-n3c(C(F)(F)F)nc4ccccc43)n(CCC#N)n2)cc1 | 1 | 11% | 3 | 14 | -35
O=S(=O)(c1ccccc1)c1cnc(-c2cccnc2)nc1-c1ccc(Cl)cc1Cl | 4 | -8% | -14 | 12 | -40
CC(C)(C)NC(=O)C(c1ccc(O)cc1)N(C(=O)CCC(=O)Nc1nccs1)c1ccccc1F (centres undefined) | -10 | -4% | 0 | -0.9 | ·
CCc1c(C)nc(SC)n(CC#N)c1=O | -4 | 5% | 0 | 3.3 | -13
COC(=O)C1=C(Nc2ccccc2NC(=O)CCCC(=O)O)CSC1 | -12 | 6% | · | 0.7 | ·
CCOC(=O)c1c(C)nc2sc3c(=O)[nH]cnc3c2c1-c1ccc(OC)cc1 | 7 | 1% | 3 | -2.7 | -32

Next section; the last 2 above are carried over.
SMILES | Mtb bLac sens | Mtb growth | Arbovirus anti | RecA splice inh | YopH inh | others
COC(=O)C1=C(Nc2ccccc2NC(=O)CCCC(=O)O)CSC1 | -12 | 6% | · | 0.7 | ·
CCOC(=O)c1c(C)nc2sc3c(=O)[nH]cnc3c2c1-c1ccc(OC)cc1 | 7 | 1% | 3 | -2.7 | -32
O=C(C1CCN(S(=O)(=O)c2ccccc2)CC1)N1CCCCC1 | -2 | · | · | 2.3 | ·
CCCc1cc(=O)[nH]c(SCc2ccc(C#N)cc2)n1 | -4 | -5% | 42* | 1.3 | -52
CO[C@H]1C=CO[C@@]2(C)Oc3c(C)c(O)c4c(O)c(c5c(c4c3C2=O)NC2(CCN(CC(C)C)CC2)N=5)=NC(=O)C(C)=CC=C[C@H](C)[C@H](O)[C@@H](C)[C@@H](O)[C@@H](C)[C@H](OC(C)=O)[C@@H]1C | 100 | <0.2µM* | 3 | 7.4 | ·
COc1ccc(NC(=O)NCc2ccc3c(c2)OCO3)cc1OC | -1 | · | · | 0.2 | ·
CCOC(=O)c1c(C)[nH]c(C2=NNC(=Nc3ccccc3OC)SC2)c1C | 8 | 4% | 21 | 3.8 | 1
Cc1nc(N2CCC(C)CC2)c2c(C)c(C(=O)Nc3ccc(C)c(F)c3)sc2n1 | -1 | -4% | 4 | 0.5 | ·
CCCc1ccc(S(=O)(=O)N/N=C\c2ccc3c(c2)OCO3)cc1 | 4 | · | · | 1.9 | ·
CCOc1ccc(Cc2onc3c2C(=O)CC(C)(C)C3)cc1OCC | -3 | 3% | -10 | 2.8 | ·
CCS(=O)(=O)Nc1cc(C(=O)O)ccc1C | -4 | -1% | -3 | 3.9 | ·
O=C(O)CC1NCCc2ccccc21 (centres undefined) | -5 | 1% | · | -0.1 | ·
COCCn1c(SCC(=O)N2CCCc3ccccc32)nnc1-c1ccco1 | 0 | -4% | 2 | -1.1 | 15
COc1ccc(-c2cc(C(=O)NCCCn3ccnc3)no2)cc1 | -2 | 1% | -8 | 0.1 | ·
CN(C)/C=C(\C=[N+](C)C)c1[nH]ncc1[N+](=O)[O-] | 8 | -3% | 2 | -1.0 | ·
Cn1c(NC(=O)Cc2ccc(F)cc2)cc(=O)n(C)c1=O | 4 | 2% | 1 | -1.1 | -38 | Arbovirus anti repeat=2
Cc1cccc(/C=N/NC(=O)Cc2ccc(Cl)cc2)c1O | -2 | · | · | 3.1 | ·
Cc1ccc(S(=O)(=O)Nc2ccnc(-c3cccnc3)n2)cc1 | -5 | -1% | 8 | -0.6 | ·
CCCN1CC23C=CC(O2)C(C(=O)O)C3C1=O (centres undefined) | ? | -14% | -2 | 0.6 | -21 | Arbovirus anti repeat=-2
CCn1c(SCC(=O)Nc2ccc3c(c2)c2ccccc2n3CC)nnc1-c1cnccn1 | 81 | 31% | -6 | 11 | -20
Cc1ccc(N(C(=O)C2CCCO2)C2C=CS(=O)(=O)C2)cc1Cl (centres undefined) | 0 | -10% | -3 | 1.9 | -39
CCCCn1c(CN2CCN(c3ccccc3)CC2)nc2c1c(=O)n(C)c(=O)n2C | -4 | -3% | 6 | 2.2 | -28 | Arbovirus anti repeat=6
CCOc1ccccc1/C=N/Nc1ccnc(=O)[nH]1 | 2 | · | · | -1.5 | ·
CCOC(=O)c1cncn1C(C)c1ccccc1 (centres undefined) | 1 | -6% | 7 | -1.9 | -33 | Arbovirus anti repeat=8
CCOc1ccc(C(=O)NCc2ccco2)cc1OCC | 5 | · | · | -1.4 | ·
Cc1ccc2c(C)c(C(=O)N(C)C(C)c3ccon3)oc2c1C (centres undefined) | 3 | · | · | 3.6 | ·
CCOC(=O)c1c(NC(=O)Nc2cccc(Cl)c2)sc(C)c1C | -1 | 4% | 3 | -3.7 | -14
CCOC(=O)C1=C(N)OC(C)=C(C(=O)OCCOC)C12C(=O)Nc1ccccc12 (centres undefined) | -5 | -9% | -6 | -1.1 | -42
Nc1c(C(=O)NCc2ccco2)sc2nc3c(cc12)C(=O)CCC3 | 30 | 7% | -8 | 22 | 43
COCCN1C(=O)N(c2cccc(C)c2)C(=O)C1CC(=O)Nc1ccc(F)cc1 (centres undefined) | -12 | -8% | -1 | · | -34
CCOC(=O)C1CCN(CCC(=O)Nc2ccc(Cl)cc2)CC1 | -15 | -12% | 4 | 1.4 | 18
CCOc1ccc(-c2c(C(=O)N/N=C/C3CC=CCC3)nnn2-c2nonc2N)cc1 (centres undefined) | 2 | · | · | -2.3 | ·

By substructure: the entries above containing a tert-butyl group.
SMILES | Mtb bLac sens | Mtb growth | Arbovirus anti | RecA splice inh | YopH inh | others
COC(=O)c1sc(-c2ccc(C(C)(C)C)cc2)cc1NC(=O)COCC(=O)O | 88 | 24% | · | 6.5 | ·
CC(C)(C)NC(=O)C(c1ccc(O)cc1)N(C(=O)CCC(=O)Nc1nccs1)c1ccccc1F (centres undefined) | -10 | -4% | 0 | -0.9 | ·

Next part
SMILES | Mtb bLac sens | Mtb growth | Arbovirus anti | RecA splice inh | YopH inh | others
O=C(/C=C/c1ccccc1[N+](=O)[O-])N1CCc2ccccc2C1 | -8 | · | · | 3.4 | ·
CC(C)=C1SC(N2CCOCC2)=NC1=O | -7 | -3% | -2 | 2.0 | -21
CN(c1ccccc1)S(=O)(=O)c1ccc(C(=O)N2CCCC(C(F)(F)F)C2)cc1 (centres undefined) | 2 | · | · | -6.1 | ·
O=C(Nc1ccc2c(c1)OCO2)c1ccc[n+]([O-])c1 | 4 | -6% | 5 | 0.2 | -69
Cc1noc(C)c1CC(=O)N1CCCC(C(=O)c2ccc(C(C)(C)C)cc2)C1 (centres undefined) | -6 | -1% | -1 | -0.2 | ·
FC(F)(F)c1ccc(/C=N/NC(=S)NC2CCCCC2)cc1 | -11 | -3% | 14 | -1.6 | ·
COc1ccc(-c2nn(-c3ccccc3)cc2/C=C\C(=O)Nc2ccc(C(=O)O)cc2)cc1 | 89 | 9% | 25 | · | ·
Cc1ccc(C)c(C(=O)COC(=O)CNS(=O)(=O)c2ccccc2)c1 | 5 | · | · | 1.8 | ·
CC(C)(CN1CCCCC1)NS(=O)(=O)c1ccc(Cl)cc1 | -10 | 4% | -1 | -4.4 | 0
COc1cc(CN2CCN(Cc3ccc(C(F)(F)F)cc3)CC2)cc(OC)c1OC | -2 | · | · | -0.4 | ·
Oc1ccc(Cl)cc1CNc1cnc2ccccc2c1 | 96 | · | · | 8.8 | ·
CSc1ccccc1C(=O)N1CCN(c2ncccn2)CC1 | 0 | 8% | 3 | -2.9 | ·
COc1ccc(NC(=O)c2cn(C)c(=O)c3cc(OC)c(OC)cc23)c(OC)c1 | -5 | · | · | 1.4 | ·
Cc1ccc(OCC(=O)N/N=C/c2cccnc2)cc1 | -11 | · | · | -0.3 | ·
Cc1c(C(=O)C(=O)NCc2ccco2)c2ccccc2n1C | 13 | 2% | -1 | 6.4 | ·
O=C(COc1nc2ccccc2nc1N1CCOCC1)Nc1cccc(S(=O)(=O)N2CCCCC2)c1 | 8 | 5% | -1 | 2.0 | -8

Compound activity deposited in PubChem by several laboratories.
